Arbovirus inh – blocks arbovirus infection; arbovirus infection cell-based antiviral screen; inhibition, % at 10 µM; hit rate 0.37% among 200,000;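 active means inhibition from about 30%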;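 further: bluetongue infection of BSR cells; cell survival read as ATP light after 72 h; 0% = infected wells without compound and 100% = uninfected wells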
Mtb betalactam – beta-lactam sensitization of Mtb H37Rv. AID 434955. M. tuberculosis H37Rv growth with meropenem, percent inhibition; hits of this screen are not shown here. hit rate 0.27% among 330,000. inhibition, % at 25 µM;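 active means about 74% or more and at least 40 points above the plate without the antibiotic, then above 30% in a dose series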;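 further: growth measured after seven days incubation then overnight dye step; 0% = bacteria only wells and 100% = bacteria with antibiotic; twin plates without the antibiotic show which effects depend on it; some results filed as inactive read as strong as hits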
RecA splice inh – inhibitors of M. tuberculosis RecA intein splicing | P9WHJ3 | cell-free RecA intein splicing, fluorescence | inhibition, %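 (about 9 µM by stock and volumes)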 | hit rate 0.75% among 290,000 | AID 2221; in the data active means inhibition above about 30%;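 further: 0% = vehicle wells and 100% = reference inhibitor control wells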
Target sequence (P9WHJ3 whole entry, looked up, canonical isoform): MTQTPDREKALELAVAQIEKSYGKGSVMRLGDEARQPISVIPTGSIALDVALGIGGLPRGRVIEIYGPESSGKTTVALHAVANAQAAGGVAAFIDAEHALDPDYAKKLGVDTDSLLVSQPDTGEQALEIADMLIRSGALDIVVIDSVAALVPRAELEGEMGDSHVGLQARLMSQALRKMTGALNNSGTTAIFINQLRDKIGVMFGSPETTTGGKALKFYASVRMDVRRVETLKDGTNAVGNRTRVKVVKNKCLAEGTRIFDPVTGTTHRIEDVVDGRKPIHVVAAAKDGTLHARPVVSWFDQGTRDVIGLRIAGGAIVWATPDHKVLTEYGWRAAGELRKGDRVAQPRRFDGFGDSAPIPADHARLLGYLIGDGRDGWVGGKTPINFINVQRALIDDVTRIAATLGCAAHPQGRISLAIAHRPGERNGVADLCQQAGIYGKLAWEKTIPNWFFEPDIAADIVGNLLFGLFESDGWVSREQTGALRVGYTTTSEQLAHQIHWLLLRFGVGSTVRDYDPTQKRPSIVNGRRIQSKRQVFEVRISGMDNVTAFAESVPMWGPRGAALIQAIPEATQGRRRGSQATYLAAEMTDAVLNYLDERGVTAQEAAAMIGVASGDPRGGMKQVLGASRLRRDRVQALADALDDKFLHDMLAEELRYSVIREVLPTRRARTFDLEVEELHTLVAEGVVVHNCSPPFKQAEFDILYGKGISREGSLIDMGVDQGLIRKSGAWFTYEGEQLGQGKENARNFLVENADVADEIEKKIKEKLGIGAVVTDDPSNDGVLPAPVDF
Mtb growth – M. tuberculosis H37Rv growth inhibitors, H37Rv strain (AID 1626). M. tuberculosis H37Rv growth inhibition; higher % means a stronger effect. inhibition, % at 10 µM; hits with a dose series show IC50 in µM. hit rate 0.95% among 220,000;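 active means confirmed in a dose series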;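 further: bacteria incubated seven days before Alamar blue readout; 0% = bacteria only wells and 100% = bacteria with antibiotic wells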
YopH inh – YopH (Yersinia) phosphatase inhibition; inhibition, %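 (about 10 µM by stock and volumes)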; hit rate 0.16% among 140,000; fluorescence Ex485/Em525;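 active means inhibition of 50% or more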;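 further: controls were vehicle for no effect and minimum signal wells for full effect; inactives centre near -20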
Active calls of the source: *. An excerpt; count on the stated rates, not on these rows.

How did CCOC(=O)c1ccc(NC(=S)Nc2ccccc2N)cc1 do in these assays?
Mtb betalactam: -4.6; RecA splice inh: 0.4; Mtb growth: 70.0%

How did N#C/C(=C(/O)COc1ccc(Br)cc1)c1nnc2n1CCCCC2 do in these assays?
Arbovirus inh: 23.8; Mtb betalactam: -2.4; RecA splice inh: -3.3; Mtb growth: 3.6%

What do the screens show for `COc1ccc(NC(=O)NCCN2CCN(c3ccc(C)cc3)CC2)c(Cl)c1`?
Mtb betalactam: 4.8; RecA splice inh: -5.2

How did CC(=O)CC(C)(C)S(=O)(=O)c1ccc(NC(C)=O)cc1 do in these assays?
Arbovirus inh: -0.4; Mtb betalactam: 1.8; RecA splice inh: -2.6; Mtb growth: -0.3%; YopH inh: -22.3

How did O=C(NC(=O)c1ccccc1N1CCCCC1)Nc1ccc(Br)cc1 do in these assays?
Mtb betalactam: 2.0; RecA splice inh: 1.9; Mtb growth: -13.8%

How did Cc1cc(N)n2nc(C)c(-c3ccc(Cl)cc3)c2n1 do in these assays?
Arbovirus inh: -27.2; Mtb betalactam: 33.9; RecA splice inh: 1.5; Mtb growth: -11.6%

How did CC(=O)c1cnc(N(C)C)s1 do in these assays?
Arbovirus inh: -8.2; Mtb betalactam: 8.7; RecA splice inh: -3.2; Mtb growth: -5.2%; YopH inh: -2.4

Results for CC(=O)N1CCN(c2ccccc2NC(=O)COc2ccc(Br)cc2)CC1 ?
Arbovirus inh: 0.3; Mtb betalactam: 18.8; RecA splice inh: 3.1; Mtb growth: -0.9%; YopH inh: -8.6

Results for CCNC(=O)NC(=O)C(C)OC(=O)c1ccc(SC)cc1OC (centres undefined) ?
Arbovirus inh: 1.1; Mtb betalactam: 2.1; Mtb growth: 6.2%

How did Cc1ccc(C)c(NC(=O)CSc2nnc(-c3cc(C)[nH]n3)n2N)c1 do in these assays?
Mtb betalactam: 5.2; RecA splice inh: 3.1

How did CCC(C)[C@H](NC(=O)NCCC1=CCCCC1)C(=O)O (some centres undefined) do in these assays?
Mtb betalactam: -4.2; RecA splice inh: -0.3; Mtb growth: -11.8%

What do the screens show for `CCOC(=O)c1[nH]cnc1C(=O)Nc1ccccc1`?
Arbovirus inh: 22.3; Mtb betalactam: -2.0; RecA splice inh: 1.8; Mtb growth: -8.8%

How did Cc1c(C(=O)N(C)Cc2ccc(OC(F)F)cc2)oc2ccccc12 do in these assays?
Mtb betalactam: 4.3; RecA splice inh: 13.9

How did O=C(Nc1cccc(S(=O)(=O)Nc2ccc(Cl)cc2)c1)c1ccc[n+]([O-])c1 do in these assays?
Mtb betalactam: -5.0; RecA splice inh: 0.4; Mtb growth: 8.2%

What do the screens show for `CC(C)(C)NC(=O)CSc1nncn1-c1ccccc1`?
Arbovirus inh: 1.7; Mtb betalactam: 4.9; RecA splice inh: 0.2; Mtb growth: 0.6%; YopH inh: -17.8

How did Cc1nn(CC(=O)N2CCCCCC2)c(=O)c2cc3occc3n12 do in these assays?
Mtb betalactam: 1.9; RecA splice inh: 3.4

Results for O=C(NCCNCc1ccccn1)c1ccco1 ?
Arbovirus inh: 2.5; Mtb betalactam: -2.1; Mtb growth: -3.0%

Results for Cc1cnc(NC(=O)CSc2ccc(Cl)cc2)s1 ?
Arbovirus inh: 5.6; Mtb betalactam: 64.5; RecA splice inh: 2.5; Mtb growth: -12.9%; YopH inh: -14.3

What do the screens show for `O=C(NCCc1ccc(Cl)cc1)C1CCCN1C(=O)NCc1ccccc1` (centres undefined)?
Mtb betalactam: 2.4; RecA splice inh: -5.4

What do the screens show for `O=C(CSc1n[nH]c(-c2ccncc2)n1)c1cccc([N+](=O)[O-])c1`?
Arbovirus inh: 0.7; Mtb betalactam: 0.5; RecA splice inh: -0.5; Mtb growth: 13.3%

Gathered by group: those above with bromine
How did N#C/C(=C(/O)COc1ccc(Br)cc1)c1nnc2n1CCCCC2 do in these assays?
Arbovirus inh: 23.8; Mtb betalactam: -2.4; RecA splice inh: -3.3; Mtb growth: 3.6%

How did O=C(NC(=O)c1ccccc1N1CCCCC1)Nc1ccc(Br)cc1 do in these assays?
Mtb betalactam: 2.0; RecA splice inh: 1.9; Mtb growth: -13.8%

Results for CC(=O)N1CCN(c2ccccc2NC(=O)COc2ccc(Br)cc2)CC1 ?
Arbovirus inh: 0.3; Mtb betalactam: 18.8; RecA splice inh: 3.1; Mtb growth: -0.9%; YopH inh: -8.6

Random excerpt: 2 records from the list
Results for O=C(NCCNCc1ccccn1)c1ccco1 ?
Arbovirus inh: 2.5; Mtb betalactam: -2.1; Mtb growth: -3.0%

What do the screens show for `COc1ccc(NC(=O)NCCN2CCN(c3ccc(C)cc3)CC2)c(Cl)c1`?
Mtb betalactam: 4.8; RecA splice inh: -5.2

Next section
Results for CCOC(=O)c1sc(=S)n(C)c1NC(=O)c1ccc(OC)cc1 ?
Mtb betalactam: 95.0; RecA splice inh: 0.1; Mtb growth: -0.9%

Results for CCCc1[nH]nc2c1C1(C(=O)N(CC(N)=O)c3ccccc31)C(C(=O)OC)=C(N)O2 (centres undefined) ?
Arbovirus inh: -2.5; Mtb betalactam: -9.7; RecA splice inh: 3.6; Mtb growth: -5.9%; YopH inh: -23.1

Results for CC1C/C(=C/c2cccs2)C(=O)/C(=C/c2cccs2)C1 (centres undefined) ?
Arbovirus inh: 4.0; Mtb betalactam: -1.4; RecA splice inh: 5.0; Mtb growth: 10.1%; YopH inh: -33.4

How did Cc1ccccc1Nc1nc(N)nc(CN(C)Cc2ccccc2Cl)n1 do in these assays?
Arbovirus inh: -6.3; Mtb betalactam: 73.4; RecA splice inh: -6.6; Mtb growth: 60.3%; YopH inh: -13.1

Results for COC(=O)C1=C(c2cccc(OC)c2OC)C[C@@H]2CC[C@H]1N2C(=O)N1CCC(O)CC1 ?
Mtb betalactam: -2.1; RecA splice inh: -0.7; Mtb growth: -1.9%

Results for COc1ccc(S(=O)(=O)N/N=C(/C)c2ccc(C)o2)cc1 ?
Mtb betalactam: -3.3; RecA splice inh: -1.7

Results for C#CCNc1ccc(C(=O)OCC)cc1 ?
Mtb betalactam: 10.9; RecA splice inh: 5.5; Mtb growth: 10.8%

Results for COc1ccc(C2=NOC(C3(S(=O)(=O)c4ccccc4)CC(O)C3)C2)cc1 (centres undefined) ?
Mtb betalactam: -3.7; RecA splice inh: -0.4; Mtb growth: -2.6%

Results for CCCCn1c(=O)c(CC(C)=O)nc2ccccc21 ?
Arbovirus inh: 0.1; Mtb betalactam: -2.9; RecA splice inh: -1.1; Mtb growth: -1.3%; YopH inh: -14.4

What do the screens show for `COC(=O)C(=Cc1ccccc1[N+](=O)[O-])C(=O)OC`?
Mtb betalactam: 88.0; RecA splice inh: 7.9; Mtb growth: 1.3%

How did COc1ccc(CNC(=O)C2CCN(C(=O)[C@@H](CC(C)C)NC(=O)OC(C)(C)C)CC2)cc1 do in these assays?
Arbovirus inh: 3.3; RecA splice inh: 0.5; Mtb growth: -9.8%; YopH inh: -40.2

How did Cc1cc(O)cc(=O)n1Cc1ccccc1 do in these assays?
Mtb betalactam: 0.3; RecA splice inh: -0.7

How did CCSc1nnc(NC(=O)C2CCCCC2)s1 do in these assays?
Arbovirus inh: 23.6; Mtb betalactam: -7.3; RecA splice inh: -0.7; Mtb growth: -6.2%; YopH inh: -10.7

How did O=C1NC2(CCCCCC2)C(=O)N1Cc1ccc(Cl)cc1Cl do in these assays?
Mtb betalactam: 8.2; RecA splice inh: 0.8

Results for CN(C)c1ccc(C=Nc2ccc(N(C)C)cc2)cc1 ?
Arbovirus inh: -1.1; Mtb betalactam: 29.9; RecA splice inh: 6.8; Mtb growth: 5.7%; YopH inh: -0.7

How did COc1ccc(CCC(=O)N2CCC3(CC2)OCCO3)cc1 do in these assays?
Arbovirus inh: 8.8; Mtb betalactam: -17.4; RecA splice inh: 0.6; Mtb growth: 2.3%; YopH inh: -21.6

How did O=C(N/N=C/c1ccc([N+](=O)[O-])cc1)c1cccnc1 do in these assays?
Mtb betalactam: -2.6; RecA splice inh: -2.7

How did COc1ccccc1NS(=O)(=O)c1cc(NC(=O)c2cccs2)ccc1N1CCCC1 do in these assays?
Arbovirus inh: 0.4; Mtb betalactam: 15.5; RecA splice inh: 10.9; Mtb growth: 6.2%; YopH inh: -16.7

Results for COc1ccc(NC(=O)Cn2c(=O)sc3ccccc32)c(OC)c1 ?
Arbovirus inh: -7.5; Mtb betalactam: 7.6; RecA splice inh: 0.7; Mtb growth: -5.3%; YopH inh: -29.9

How did CCCCN(C(=O)c1cccc(S(=O)(=O)N2CC(C)OC(C)C2)c1)c1c(N)n(CC(C)C)c(=O)[nH]c1=O (centres undefined) do in these assays?
Mtb betalactam: -12.4; RecA splice inh: -3.3

Of the compounds above, 2 contain a tert-butyl group.
What do the screens show for `CC(C)(C)NC(=O)CSc1nncn1-c1ccccc1`?
Arbovirus inh: 1.7; Mtb betalactam: 4.9; RecA splice inh: 0.2; Mtb growth: 0.6%; YopH inh: -17.8

How did COc1ccc(CNC(=O)C2CCN(C(=O)[C@@H](CC(C)C)NC(=O)OC(C)(C)C)CC2)cc1 do in these assays?
Arbovirus inh: 3.3; RecA splice inh: 0.5; Mtb growth: -9.8%; YopH inh: -40.2

Further compounds:
How did CC(=O)Cc1ccccc1OC(=O)c1ccco1 do in these assays?
Arbovirus inh: 1.5; Mtb betalactam: -13.4; RecA splice inh: 7.5; Mtb growth: 1.6%; YopH inh: 6.9

How did CC(=O)c1ccc(NC(=S)N2CCN(CCO)CC2)cc1 do in these assays?
Mtb betalactam: -5.3; RecA splice inh: -2.7

What do the screens show for `Cc1c(C(=O)N2CCOCC2)c(S(=O)(=O)N2CCN(c3ccc(Cl)cc3)CC2)c(C)n1C`?
Mtb betalactam: -3.7; RecA splice inh: 0.5

Results for C=CCOc1c(OC)cc(/C=N/Nc2cccc(C(=O)O)c2)c(Br)c1Br ?
Arbovirus inh: 3.7; Mtb betalactam: 0.3; RecA splice inh: 5.5; Mtb growth: 3.0%; YopH inh: -6.2

What do the screens show for `Cc1cc(Nc2cc(Cl)cc(Cl)c2)nc(N)n1`?
Mtb betalactam: -4.5; Mtb growth: -4.8%

Results for CN(CC(=O)Nc1ccc(F)cc1)C(=O)CN1C(=O)NC2(CCCc3ccccc32)C1=O (centres undefined) ?
Mtb betalactam: -5.5; RecA splice inh: -1.0

How did COc1cccc(CN2CCN(C(=O)c3oc4c(F)cccc4c3C)CC2=O)c1 do in these assays?
Mtb betalactam: 5.2; RecA splice inh: 4.0

Results for COc1ccccc1/C=C/C=N/n1c(-c2cc(C)[nH]n2)n[nH]c1=S ?
Arbovirus inh: 4.2; Mtb betalactam: -1.0; RecA splice inh: -8.6; Mtb growth: -2.1%; YopH inh: 23.6

How did CSc1ncccc1C(=O)OCc1ccc(COC(=O)c2cccnc2SC)cc1 do in these assays?
Arbovirus inh: 9.7; Mtb growth: -1.3%; YopH inh: -23.1

What do the screens show for `CNc1ccc(Br)cc(C(=O)/C=C/c2ccc3c(c2)OCO3)c1=O`?
Arbovirus inh: 4.7; Mtb betalactam: 53.4; RecA splice inh: -3.4; Mtb growth: 10.2%; YopH inh: -24.4

Results for O=C(NCc1cccs1)c1cc(-c2ccccc2)on1 ?
Arbovirus inh: 0.1; Mtb betalactam: 5.4; RecA splice inh: -3.1; Mtb growth: -8.0%; YopH inh: -23.4

Results for Cc1cccc(N(C)C(=O)c2cc(S(=O)(=O)N3CCc4ccccc43)cn2C)c1 ?
Mtb betalactam: -13.7; RecA splice inh: -2.4

How did CCOC(=O)c1ccccc1-n1c(C)cc(C2N=C(N)Nc3nc4ccccc4n32)c1C (centres undefined) do in these assays?
Arbovirus inh: 3.9; Mtb betalactam: 99.3; RecA splice inh: 19.5; Mtb growth: 11.5µM*; YopH inh: 8.2

Results for O=C1CCC(=O)N1c1ccc(-c2nc3ccccc3s2)cc1 ?
Arbovirus inh: -1.6; Mtb betalactam: 1.5; RecA splice inh: -1.5; Mtb growth: -4.1%

How did COc1ccc(CN(CCc2ccccc2)Cc2ccccc2)cc1OC do in these assays?
Mtb betalactam: 0.6; RecA splice inh: 12.9

What do the screens show for `CCc1cc(=O)[nH]c(SCC(=O)N2CCOCC2)n1`?
Mtb betalactam: -9.1; RecA splice inh: -0.9

What do the screens show for `COc1ccc(NC(=S)N2CCOCC2)c(OC)c1`?
Arbovirus inh: -0.4; Mtb betalactam: 0.2; RecA splice inh: -1.1; Mtb growth: -0.4%; YopH inh: 5.4

What do the screens show for `Cc1cccc(NC(=O)Cc2ccc(-c3ccccc3)cc2)n1`?
Mtb betalactam: 34.1; RecA splice inh: 1.9

How did Cc1ccc(NC(=O)c2cccs2)cc1 do in these assays?
Arbovirus inh: 1.1; Mtb betalactam: 2.5; RecA splice inh: 1.4; Mtb growth: -1.3%; YopH inh: 8.9

What do the screens show for `O=Cc1cccn1-c1nccc(-c2ccco2)n1`?
Arbovirus inh: 9.4; Mtb betalactam: -0.9; RecA splice inh: 0.2; Mtb growth: 7.3%

Results for COC(=O)c1ccccc1NC1OC(=O)c2ccccc21 (centres undefined) ?
Arbovirus inh: 7.2; Mtb betalactam: -1.9; RecA splice inh: 1.7; Mtb growth: -11.6%; YopH inh: -26.0

How did CCc1ccc(CN2CCCC(CNS(=O)(=O)c3ccc(OC)cc3)C2)cc1 (centres undefined) do in these assays?
Arbovirus inh: -39.0; Mtb betalactam: 5.7; RecA splice inh: 1.2; Mtb growth: 2.5%

Screening data as filed in PubChem.
